Screening data as filed in PubChem BioAssay.
TsaE inh = inhibitors of E. coli YjeE (TsaE); Potency, µM; AID 605; actives 0.05% (n = 71,000); purified YjeE, fluorescence polarisation of a bound ADP probe; P0AF67; active = well fitted falling curve; inconclusive = weaker or top-dose-only fall, or a rising curve; inactive = flat or poorly fitted curve;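 note: top concentration of the series not given in the record; excess ADP was the control for the full effect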
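Purified YjeE (10 uM) with BODIPY Texas Red-labeled ADP probe (2 uM); compounds pin-transferred, 15 min at room temperature. Binding inhibition read as decreased fluorescence polarization; ADP titration as control.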
Bst PK mod = alters activity of Bacillus stearothermophilus pyruvate kinase; partly purified Bacillus stearothermophilus pyruvate kinase, luminescence ATP production; ribose 5-phosphate activator present at AC10; AID 361; actives 1.2% (n = 51,000); Potency, µM; in the data active means potency below about 11 µM; inconclusive means mostly about 12 µM to 25 µM; inactive means weaker than that;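 the screen sought inhibitors and activators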;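 note: potency is the fitted concentration of half-maximal effect; scaled between full activation by ribose 5 phosphate and full inhibition by luteolin; about four in five hits inhibit and the cells do not say which; series up to 57 µM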
Numbers without * were called inactive; i = inactive; ? = inconclusive; nt = not tested or not shown.

Structure,TsaE inh,Bst PK mod
COCCNC(=O)C(OC(=O)c1cccs1)c1ccccc1 (centres undefined),i,>57
CCN1CCC(NC(=O)c2cc(OC)c(OC)cc2OC)CC1,i,>57
COC(=O)c1ccc(-c2nn(C)c(=O)c3ccccc23)cc1,i,nt
O=C(CCCCCN1C(=O)c2ccccc2C1=O)NCCc1nc2ccccc2[nH]1,i,>57
O=C(Oc1cccnc1)c1cccc(Cl)c1,i,nt
COc1cccc(NC(=O)COC(=O)c2ccco2)c1,i,>57
COc1ccccc1NC(=O)CSc1nnc(-c2ccccc2)o1,i,nt
Cc1ccc(-c2nnn(CC(=O)N(Cc3cccs3)C(C(=O)NC(C)(C)C)c3ccc(C)o3)n2)o1 (centres undefined),i,>57
CC(C)c1nc(SCC(=O)NCc2ccc3c(c2)OCO3)c2c(=O)n(C)c(=O)n(C)c2n1,i,nt
COc1cc(NC(=O)C2COc3ccccc3O2)c(OC)cc1Cl (centres undefined),i,>57
Cc1csc(NC(=O)CCS(=O)(=O)c2ccc(Br)cc2)n1,i,?
Cn1cccc1C(=O)N1CCC2(CC1)CN(C(=O)Nc1cccc(C#N)c1)C2,i,nt
Cc1ccc(-n2c(Cc3cccn3C)nnc2SCC(=O)N2CCc3ccccc32)cc1,i,>57
O=C(O)c1ccc(CO)o1,i,nt
CC(C)[C@@H]1OC(=O)C=CC=CC=CC=CC=CC[C@@H](O)[C@H](C)[C@@H](O)C[C@H](O)C[C@H](O)C[C@H](O)C[C@H](O)C[C@H](O)C[C@H](O)C=C[C@@H]1C,i,nt
CON(C)c1nc(OCCNC(=O)OCc2ccc(Cl)cc2Cl)nc(N(C)C)n1,i,>57
O=C(O)C1CCCCC1C(=O)NCc1cn2ccccc2n1 (centres undefined),i,nt
OC(Cn1ccnc1)c1ccc(Cl)cc1Cl (centres undefined),i,>57
Cc1cc2nc(C)n3c4ccccc4nc3n2n1,i,nt
NS(=O)(=O)c1cc2c(cc1Cl)=NC(CCC(=O)O)=NS=2(=O)O,i,nt
Cc1cc(Nc2ccc(N3CCC(C)CC3)cc2)n2ncnc2n1,i,nt
Cc1ccc(C)c(NC(=O)CS(=O)(=O)c2c[nH]c3ccccc23)c1,i,?
CCCC[P+](CCCC)(CCCC)Cc1ccc(NC(=O)[C@@H](Cc2ccc3ccccc3c2)NC(=NC2CCCCC2)NC2CCCCC2)cc1,i,nt
O=C(NC1CCCCC1)N1CCc2[nH]c3ccccc3c2C1,i,>57
COc1cccc(CN2C(=O)CCC2(C)C(=O)NC2CCCCC2)c1 (centres undefined),i,nt
O=C(Nc1ccc(F)cc1F)N1CCN(c2ncccn2)CC1,i,nt
CCOc1ccc(N(CC(=O)Nc2nccs2)S(=O)(=O)c2c(C)noc2C)cc1,i,nt
CCOc1ccccc1NC(=O)C1CCC(CNc2c(N3CCOCC3)c(=O)c2=O)CC1 (centres undefined),i,nt
C=CCSc1nnc(C)n1-c1ccc(Cl)cc1,i,>57
CCN(CCCNC(=O)COc1cc(=O)n(CC)c2ccccc12)Cc1ccccc1,i,>57
O=C(CCN1C(=O)c2ccccc2C1=O)OCN1C(=O)c2ccccc2C1=O,nt,>26
CCC1CCCCN1C(=O)CSc1nc2c(cnn2-c2ccc(C)cc2)c(=O)[nH]1 (centres undefined),i,nt
COc1ccc(CNC(=O)C(C#N)c2nc3ccccc3nc2N2CCCC2)cc1 (centres undefined),i,>57
COc1ccc(-c2nc(CSCC(=O)NCc3ccc4c(c3)OCO4)c(C)o2)cc1OC,i,nt
COc1ccc(-n2nc(C(=O)NCC(=O)NCC3CCCO3)c3ccccc3c2=O)cc1 (centres undefined),i,>57
Cc1cc(C)cc(NC(=O)CCNS(=O)(=O)c2ccc3c(c2)oc(=O)n3C)c1,i,>57
COC(=O)c1ccc(NS(=O)(=O)c2ccc3c(c2)oc(=O)n3C)cc1,i,nt
CN1/C(=C\C(=O)Nc2cccnc2)c2ccccc2CC1(C)C,i,>57
OC1CCN(Cc2cccc(Oc3ccccc3)c2)CC1,i,nt
CCOC(=O)N1CCC(NC(=O)C2CCCN(C(=O)c3cc4sccc4n3C)C2)CC1 (centres undefined),i,nt
CC(=O)N1CCC(N2CCN(c3ccccc3F)CC2)CC1,i,nt
CCCn1c(SCC(=O)c2cc(OC)ccc2OC)nnc1-c1ccco1,i,>57
Cn1nnnc1SCC(=O)N1c2ccccc2CCc2ccccc21,i,>57
Cc1cc(C)c2oc(=O)cc(CN3CCN(Cc4ccc5c(c4)OCO5)CC3)c2c1,i,>57
COc1ccc(-c2nn3c(-c4ccncc4)nnc3s2)cc1OC,i,>57
CCOC(=O)CSc1nnc(CNC(=O)c2cccs2)n1-c1ccccc1,i,>57
Cc1ccc2c(CN3CCN(Cc4ccc5c(c4)OCO5)CC3)cc(=O)oc2c1C,i,>57
CC(C)C(C(=O)N1CCOCC1)N1C(=O)c2ccccc2C1=O (centres undefined),i,>57

Shown field by field: part of the list above.
CCOC(=O)N1CCC(NC(=O)C2CCCN(C(=O)c3cc4sccc4n3C)C2)CC1 (centres undefined)
- TsaE inh: i
- Bst PK mod: nt

CC(=O)N1CCC(N2CCN(c3ccccc3F)CC2)CC1
- TsaE inh: i
- Bst PK mod: nt

CCCn1c(SCC(=O)c2cc(OC)ccc2OC)nnc1-c1ccco1
- TsaE inh: i
- Bst PK mod: >57

Cn1nnnc1SCC(=O)N1c2ccccc2CCc2ccccc21
- TsaE inh: i
- Bst PK mod: >57

Additional entries
Structure,TsaE inh,Bst PK mod
COc1ccc(NC(=O)N2CCN(c3cccc(C(F)(F)F)c3)CC2)cc1,i,>57
CCOc1ccccc1Nc1nc2ccccc2n2cnnc12,i,nt
Cn1c(=O)[nH]c(=O)c2c1nc(Sc1nc3ccccc3s1)n2Cc1ccccc1,i,>57
CCCCOc1ccc(C2CC(=O)N(C)C2=O)cc1 (centres undefined),nt,>26
COCCn1c(SCc2ccccc2Cl)nc2c1c(=O)[nH]c(=O)n2C,i,>57
CCCNS(=O)(=O)c1ccc(OCC(=O)N2CCC(C(=O)OCC)CC2)cc1,i,>57
CCOc1ccccc1N1CSC2=C(C#N)C(c3c(OC)ccc4ccccc34)CC(=O)N2C1 (centres undefined),i,nt
COc1ccccc1NC(=O)Cn1cnc2sc(C(=O)NCc3ccco3)c(C)c2c1=O,i,>57
O=C1CC(N2CCC(c3nc4ccccc4o3)CC2)C(=O)N1Cc1cccs1 (centres undefined),i,>57
N#Cc1cccc(NC(=O)CSc2ccccc2)c1,i,>57
CCN(CC)CCCNC(=O)C1CCN(C(=O)c2cc3sccc3n2Cc2ccc(F)cc2)CC1,i,>57
CCCCCNc1c(C(=O)OCC)c(=O)[nH]c2ccccc12,i,>57
COc1ccc(Cl)c(N2CCN(CCCNC(=O)Nc3ccc(C)cc3)CC2)c1,i,>57
COc1cc2cc(C(c3nnnn3C3CCCC3)N(C)C3CCCCC3)c(=O)[nH]c2cc1OC (centres undefined),i,>57
CCN1C2=C(C(=O)CCC2)C(c2ccc(O)cc2)C2=C1CCCC2=O,i,>57
CNC(=O)[C@@H]1C[C@H]1[C@@H](NC(=O)OCc1ccccc1)c1ccccc1,i,nt
COc1ccccc1N(CC(=O)Nc1ccc2c(c1)OCCO2)S(C)(=O)=O,i,>57
CC(=O)c1c(C)[nH]c(C(=O)OCC(=O)Nc2cc(C(F)(F)F)ccc2N2CCOCC2)c1C,i,>57
COc1cc(-c2nnc(-c3cccs3)o2)cc(OC)c1OC,i,>57
c1cc(CNc2ccc3c(c2)OCO3)ccn1,i,>57
CC(=O)c1oc2ccccc2c1NC(=O)COC(=O)c1ccc(-n2nc(C)cc2C)cc1,i,>57
CCOc1ccc(S(=O)(=O)Nc2ccccc2C(=O)NCC2CCCO2)cc1 (centres undefined),i,nt
Cc1noc(C)c1S(=O)(=O)N(CC(=O)N1CCCC1)c1ccc(C(C)C)cc1,i,nt
Cc1cc(NC(=O)COC(=O)COc2ccc(C(=O)c3ccccc3)cc2)no1,i,>57
O=C(CN1CCN(c2ccc(F)cc2)CC1)N1CCC(Cc2ccccc2)CC1,i,>57
CCOC(=O)C1CCCN(c2nc3ccccc3nc2C(C#N)C(=O)NCc2ccccc2)C1 (centres undefined),i,>57
CCCCn1c(SCC(=O)c2ccc(OC)cc2OC)nc2cc(S(N)(=O)=O)ccc21,i,>57
CCNC(=O)c1sc(-c2ccccc2)nc1C,i,nt
CCC1CCCCN1CCCNC(=O)Cn1nc(-c2ccc(C)cc2)ccc1=O (centres undefined),i,>57
O=C(c1cnccn1)N1CCC2(CC1)CCN(c1ccncc1)CC2,i,nt
CC(=O)NCCNc1ncncc1-c1ccccc1C(F)(F)F,i,nt
O=C(c1nc2n(n1)C(c1ccc(Cl)cc1)C=C(c1ccccc1)N2)N1CCOCC1 (centres undefined),i,>11
CCCCC(c1nnnn1CS(=O)(=O)c1ccc(C)cc1)N1CCN(c2ccccc2)CC1 (centres undefined),i,>57
COc1cccc2cc(C(=O)NC3CC(C)(C)NC(C)(C)C3)c(=O)oc12,i,>11
COc1ccc(C(NC(=O)C(C)(C)C)NC(=O)C(C)(C)C)cc1,i,>57
CCN1CCN(C(=O)Nc2cccc(C(F)(F)F)c2)CC1,i,>57
O=C(Nc1ccc2oc(=O)ccc2c1)c1cccnc1,i,nt
CCOc1c(Br)cc(C2NS(=O)(=O)N=C3CCCCCN32)cc1OC (centres undefined),i,>57
COC(=O)CCN(C(=O)c1ccc2c(c1)OCO2)c1ccccn1,i,>57
CCn1cnc2cc(NCc3nc4ccccc4n3C)ccc21,i,nt
Cc1onc(-c2ccccc2Cl)c1C(=O)Nc1ccc(OCC(=O)N2CCOCC2)cc1,i,nt
CCOC(=O)c1oc2ccccc2c1NC(=O)C1CCCCC1,i,>57
COc1ccc2oc(C)c(NC(C)=O)c2c1,i,>57
COc1ccc(C(=O)c2oc3ccc(Br)cc3c2NC(C)=O)cc1,i,nt
CC1CCc2c(sc3ncnc(SCC(=O)N4CCN(C(=O)c5ccco5)CC4)c23)C1 (centres undefined),i,>57
O=C(CN1CCC(n2nnc3cc(F)ccc32)CC1)NC1CCCCC1,i,>57
COc1ccc(-c2nc3cnc(OC)nc3n(CCc3ccccc3)c2=O)cc1,i,nt
O=C(OCn1nnc2ccccc2c1=O)c1ccc2ccccc2n1,i,nt
COCCNC(=O)c1ccccc1NC(=O)COc1ccccc1,i,>57
Cc1ccc(C)c(N2CCN(C(=O)C3CCN(S(=O)(=O)c4c(C)noc4C)CC3)CC2)c1,i,>57
O=C(CSc1nnc(C2COc3ccccc3O2)o1)N1CCOCC1 (centres undefined),i,>57
COCCCn1nnnc1SCC(=O)Nc1nc(C)c(C)s1,i,>57
O=C(CSCc1ccccc1)Nc1ccc2c(c1)OCO2,i,>57
Cn1c(SCC(=O)N(C2CCCCC2)C2CCCCC2)nnc1-c1cccs1,i,>57
CCOC(=O)COc1nc(N(C)C)nc(N(C)C)n1,nt,>11
Cc1cc(C)c(NC2=CC(=O)CC(C)(C)C2)c(C#N)c1,i,i
COC(=O)c1ccc(C2CC(=O)Nc3cc(OC)c(OC)cc32)cc1 (centres undefined),i,>57
Cc1c(N(C(=O)Nc2ccccc2)C2=NCC(C)S2)c(=O)n(-c2ccccc2)n1C (centres undefined),i,>57
CC(C)(C)NC[C@H](O)COc1cccc2[nH]c(=O)[nH]c12,i,nt
CC(=O)N(c1ccc2oc(=O)sc2c1)S(=O)(=O)c1ccccc1,i,>57

Next section
Structure,TsaE inh,Bst PK mod
CCCn1nnnc1SCC(=O)NCc1cccs1,i,>57
CCOc1ccc(-c2ncncc2-c2ccc(OC)cc2)c(O)c1,i,>57
COc1ccccc1C1C(C(=O)c2cc3ccccc3o2)=C(O)C(=O)N1CCN(C)C (centres undefined),i,>57
O=C(c1ccco1)[C@@H]1[C@@H]2C(=O)N(c3ccc(Br)cc3)C(=O)[C@@H]2C2c3ccccc3C=CN21 (some centres undefined),i,7.2*
Cn1c(=O)n(CCc2ccccc2)c(=O)c2c1nc1n2CCN1Cc1ccco1,i,>57
C=CCn1c(NC(=O)c2ccccc2Cl)c(C#N)c2nc3ccccc3nc21,i,>57
CCOCC(=O)Nc1nc2ccc(C)cc2s1,i,nt
Cn1nnnc1SCC(=O)Nc1nc(-c2ccccc2)c(-c2ccccc2)o1,i,>57
Cc1cc(C)c2c(N)c(C(=O)N3CCCCCC3)sc2n1,i,>57
COC(=O)[C@@H]1C[C@H]1[C@@H](NC(=O)Oc1ccc(F)cc1)c1ccccc1,i,nt
COc1ccc(C(CNC(=O)c2ccc(-n3cnnn3)cc2)N2CCOCC2)cc1 (centres undefined),i,>57
COC(=O)c1cc(OC)c(OC)c(OC)c1N,i,>57
COCC(C)NC(=O)c1noc2c1CCc1cc(OC)ccc1-2 (centres undefined),i,nt
CCCCOC(=O)C1=C(C)Nc2ncnn2C1c1cccc(OC)c1OC (centres undefined),i,>57
COc1ccc(-n2c(=O)cc(N3CCN(c4ccccc4F)CC3)[nH]c2=O)cc1,i,>57
CCN(CC)S(=O)(=O)N1CCC(C(=O)NC2CCCc3ccccc32)CC1 (centres undefined),i,?

Not all compounds are listed; count on the stated rates, not on these rows.
